# Screens as filed in PubChem BioAssay.
# CtBP-E1A blk – CtBP/E1A binding inhibition. AID 651724. hit rate 0.49% among 340,000. activity change, % (no concentration beside the values). AlphaScreen GST-E1A/His-CtBP binding, 1536-well; hits give low values; control for the full effect not named in the record; in the data active means activity change below about -65%; inconclusive means about -30% to -65%; inactive means above about -30%; also: % is scaled to controls: 0 for no effect and ±100 for the full control effect; compound concentration not given in the record
#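 GST-E1A and His-tagged CtBP (125 nM each as 5X stock) were preincubated with pin-transferred compound for 2 h at 37 °C in the dark, then glutathione donor and nickel acceptor beads were added for 1 h before AlphaScreen reading.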
# Six1-Eya2 blk – Six1/Eya2 interaction inhibition; Q15475+O00167; AlphaScreen GST-Six1/His-Eya2 binding, biochemical; hits give low values; control for the full effect not named in the record; activity change, % (test concentration not listed); hit rate 0.56% among 360,000; in the data active = activity change below about -65%; inconclusive = about -30% to -65%; inactive = above about -30%; also: % is scaled to controls: 0 for no effect and ±100 for the full control effect; compound concentration not given in the record
# Target sequence (O00167 whole entry, looked up): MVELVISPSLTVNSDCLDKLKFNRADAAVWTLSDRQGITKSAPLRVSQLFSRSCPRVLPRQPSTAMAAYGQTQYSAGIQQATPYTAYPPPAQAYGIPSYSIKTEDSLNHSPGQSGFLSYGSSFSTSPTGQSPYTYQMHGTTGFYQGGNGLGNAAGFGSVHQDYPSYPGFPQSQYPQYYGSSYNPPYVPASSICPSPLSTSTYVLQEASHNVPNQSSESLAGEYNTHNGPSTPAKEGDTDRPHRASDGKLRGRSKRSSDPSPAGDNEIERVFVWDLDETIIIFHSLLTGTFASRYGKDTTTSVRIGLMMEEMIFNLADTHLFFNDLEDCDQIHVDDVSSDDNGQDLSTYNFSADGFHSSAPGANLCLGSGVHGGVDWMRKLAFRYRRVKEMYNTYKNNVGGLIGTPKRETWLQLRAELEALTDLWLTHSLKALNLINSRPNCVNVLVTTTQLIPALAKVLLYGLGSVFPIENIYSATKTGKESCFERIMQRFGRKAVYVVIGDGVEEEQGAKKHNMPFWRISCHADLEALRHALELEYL
# Target sequence (Q15475 whole entry, looked up): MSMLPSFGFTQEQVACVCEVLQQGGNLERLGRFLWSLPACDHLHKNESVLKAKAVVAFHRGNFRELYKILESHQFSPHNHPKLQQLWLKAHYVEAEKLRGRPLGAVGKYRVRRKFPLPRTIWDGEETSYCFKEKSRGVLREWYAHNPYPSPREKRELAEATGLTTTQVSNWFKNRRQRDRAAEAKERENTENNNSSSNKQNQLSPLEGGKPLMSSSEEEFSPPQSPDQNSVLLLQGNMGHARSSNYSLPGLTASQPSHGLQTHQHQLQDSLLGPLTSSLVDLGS
#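 AlphaScreen with GST-Six1 and His-Eya2 (5X mix: 250 nM and 500 nM), glutathione donor and nickel acceptor beads; buffer 50 mM Tris pH 8.0, 300 mM NaCl, 1 mM TCEP; 1 h at 37 C in the dark.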
# gsp agonist – activates gsp, the McCune-Albright syndrome mutation. gsp mutant cells, cAMP HTRF, 30 min; control for the full effect not named in the record. Potency, µM (titrated, usually from 76.9 µM), for inactives: top-dose activation (cAMP increase), usual class: activators. AID 624287. hit rate 0.13% among 340,000; active = well fitted activation curve with a large enough effect; inconclusive = small, poorly fitted or top-dose-only effect, or another doubt; inactive = no such curve, though single readings can be large or run the other way; cell line not stated here;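 also: phosphodiesterase inhibitor Ro 20-1724 added with compounds to block cAMP breakdown; potency is read from the fitted curve at half-maximal effect; nearly all actives have a fitted effect of over 60% in size; about a fifth of the inactives were tested at one dose only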
#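 Cells stably selected in G418 were plated at 2000/well, grown 16-24 hr, then given compounds in DMSO with the PDE inhibitor […] (300 uM solution added) for 30 min at 37C; cAMP was read by HTRF.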
# D2 ag – activates the human D2 dopamine receptor; DiscoveRx PathHunter D2 beta-arrestin, luminescence, 90 min; 100% = 57 uM dopamine signal; activation, % (concentration not given with the values); hit rate 0.084% among 360,000; AID 624465; in the data active = activation above about 40%; inconclusive = about 15% to 40%; inactive = below about 15%; also: compound concentration not given in the record; the text of the record calls up to 30% inactive
#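 Agonist mode: compounds alone added to overnight-plated D2 PathHunter cells for 90 min at 37 C, with 57 uM final dopamine (EC100) defining full response. Beta-arrestin recruitment detected by chemiluminescent reagent, read after 1 h at ambient temperature.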
# D2 PAM – human D2 receptor positive allosteric modulation; potentiation, % (no concentration beside the values); hit rate 0.23% among 360,000; DiscoveRx D2 beta-arrestin cells, luminescence, 90 min; 100% = 57 uM dopamine signal; AID 624464; active = potentiation of 50% or more; inconclusive = 30% to 50%; inactive = 30% or less;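 also: compound concentration not given in the record; tested on top of an EC20 dose of dopamine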
#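 PathHunter D2 cells, attached overnight at 37 deg C, received compound in DMSO plus dopamine at EC20 (50 nM final) for 90 min at 37 deg C. Beta-arrestin recruitment was read as luminescence after 1 h with detection reagent at ambient temperature.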
# gsp antag – gsp mutant antagonism; Potency, µM (highest dose often 76.9 µM), without a hit: top-dose activity change, negative = inhibition, actives largely listed as inhibitors; gsp-mutant cells, cAMP HTRF, 30 min; control for the full effect not named in the record; hit rate 0.4% among 340,000; active = falling curve of any shape with a large fitted effect; inconclusive = falling curve, mostly with a smaller effect; inactive = flat or rising curve; cell line not stated here;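 also: intracellular cAMP measured with PDE inhibitor Ro 20-1724 present during compound exposure; potency is read from the fitted curve at half-maximal effect; % is scaled to controls: 0 for no effect and ±100 for the full control effect; nearly all actives have a fitted effect of over 65% in size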
#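 HTRF cAMP read-out (cAMP-d2 plus anti-cAMP antibody-K in lysis buffer, 30 min RT). Before lysis, cells are exposed to compounds with […] for 30 min at 37C in DPBS containing Ca/Mg, BSA and Tween 20.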
# The depositor's hits bear a star; u = inconclusive; x = no result given; [ ] = remark or other dose.
CtBP-E1A blk	Six1-Eya2 blk	gsp agonist	D2 ag	D2 PAM	gsp antag	SMILES
-2	1	x	4.4	-5	x	Cc1c(C(=O)N(C)Cc2ccc(F)cc2)sc(=O)n1Cc1ccc(Cl)c(Cl)c1
1	0	u	-3.7	-21	8%	CCCCN1C(=N)N([C@@H](C)CN2CCC[C@H]2CN2C(N)=NC[C@@H]2Cc2ccccc2)C[C@H]1[C@H](C)CC
-3	-5	0%	-3.2	-14	8%	COc1ccc2nc(NCc3ccccc3)[nH]c2c1
5	-1	3%	-0.4	9	-13%	Cc1ccc(S(=O)(=O)NC(CC(C)C)C(=O)Nc2nccs2)cc1 (stereo not given)
3	-3	-11%	-2.5	0	-24%	COc1ccc(CNC(=O)COC(=O)[C@H](Cc2ccccc2)NC(=O)c2cccs2)cc1
1	-1	8%	-3.2	20	14%	COCCN(C(=O)COC(=O)c1ccco1)c1c(N)n(Cc2ccccc2)c(=O)[nH]c1=O
-19	-23	u	-4.5	0	9%	COc1cc2cnc(-c3cccnc3)cc2cc1OC
13	7	9%	-3.7	-4	11%	CC(Oc1ccccc1)c1ccnc2nc(/N=C/N(C)C)nn12 (stereo not given)
-9	-1	-12%	-0.3	0	10%	CCOC(=O)NC(=O)CSc1nc2ccccc2[nH]1
x	-12	23%	0.1	-7	6%	COc1cc(NC(=O)C2=C(C)OCCS2)c(Cl)cc1C(=O)NCCN1CCN(C)CC1
2	-4	-4%	2.7	-6	u	O=S(=O)(Nc1cccc(-c2ccc(N3CCCCCC3)nn2)c1)c1ccccc1F
6	1	5%[15.4 µM]	-2.6	-8	-6%	O=C(Nc1ccccc1)c1cc(S(=O)(=O)Nc2cccnc2)ccc1Cl
x	-2	5%	-0.1	4	1%	COc1ccccc1OC(=O)CCc1nc2ccccc2s1
-1	-8	-26%	-4.7	-17	5%	O=C(COC(=O)C(O)c1ccccc1)NC12CC3CC(CC(C3)C1)C2 (stereo not given)
0	17	-66%[inhibitor]	-3.9	-3	6%	COCCn1c(N)c(Sc2ccccc2[N+](=O)[O-])c(=O)[nH]c1=O
0	-18	-9%[15.4 µM]	0.3	2	-18%	CSc1nc(O)cc(=O)n1-c1ccc(F)cc1
9	5	u	-1.4	-3	-3%	Cc1cc(C)c2cc(C#N)c(N3CCCN(C(=O)c4cnccn4)CC3)nc2c1
-24	-24	13%	0.5	-7	-2%	N#Cc1nc(Cc2cccc3ccccc23)oc1N1CCN(c2ccccc2)CC1
-1	6	5%	3.3	u	10%	CCc1nc(CNC(=O)C2CCC(=O)N(CCc3cccc(F)c3)C2)no1 (stereo not given)
-10	-10	-19%	9.1	-5	15%	Cc1cc(OCc2cc(C(=O)N3CCN(CC4CC4)CC3)no2)cc(C)c1Cl
-10	-1	-34%[inhibitor]	-2.9	-19	-7%	COc1ccccc1C=NNc1nc(C)cc(=O)[nH]1
2	1	-42%	-2.6	-13	-7%	O=c1cc(N2CCC3(CC2)OCCO3)[nH]c(=O)n1-c1ccc(Cl)cc1
-6	-11	-19%[15.4 µM]	3.5	-5	u	O=C(Nc1cccc(S(=O)(=O)N2CCCC2)c1)c1ccc2c(=O)n3c(nc2c1)CCCCC3
x	-6	u	0.7	-7	0%	CCN(CC)C(=O)Cn1ccc(NC(C)=O)nc1=O
x	0	-51%[inhibitor]	7.7	5	-11%	Cc1cc(C(=O)COC(=O)c2ccc(O)cc2)c(C)n1CC(F)(F)F
0	-3	15%[15.4 µM]	8.7	16	-52%	Cc1[nH]c2ccccc2c1/C=N/Nc1nncn1N
4	-3	0%[15.4 µM]	3.8	-12	-9%	Cc1ccc(C(=O)NCCn2ccc3ccccc32)cc1[N+](=O)[O-]
-11	-6	-22%	-1.8	-4	x	CC1(C)CN(CCc2ccccc2)C(=O)[C@H]1CC(=O)Nc1ccc(Br)cc1
0	5	9%	-1.0	7	-1%	COc1ccc(NC(=O)CCCNS(=O)(=O)c2cccs2)cc1
1	-1	22%	1.3	4	-9%	Cc1ccc2c(c1)c(N=O)c(O)n2Cc1ccc(Cl)cc1
-13	-17	5%	-3.4	-8	7%	COc1cc(NC(=S)NCCCN(C)C)c(OC)cc1NC(=O)c1ccco1
-2	-5	19%	1.1	-6	4%	Cc1ccc(NC(=O)Cn2cccc2C2=NC(c3ccccc3)CO2)c(C)c1 (stereo not given)
-6	-1	-54%	0.9	-10	2%	O=C(NCCCn1ccnc1)/C(=C\c1ccc(Br)cc1)NC(=O)c1ccccc1F
0	6	7%[15.4 µM]	-4.0	-5	-3%	N=c1c2ccccc2nnn1-c1ccc(C(F)(F)F)cc1
-2	-6	22%	0.4	-4	-7%	O=C(N/N=C/c1cc([N+](=O)[O-])ccc1Cl)c1ccc2nc[nH]c2c1
-9	-9	-19%	-5.2	-7	7%	O=C(CC(c1ccccc1)c1cc(Br)ccc1O)NCCCN1CCOCC1 (stereo not given)
3	-5	-17%	-0.4	-2	2%	CCOC(=O)N1CCN(c2c(NCC3CCCO3)c(=O)c2=O)CC1 (stereo not given)
0	-1	u	4.2	-5	-2%	COc1ccc(COc2ccc3ccc(=O)oc3c2)cc1
-11	0	x	-4.3	x	-1%	COc1ccc(CNC(=O)CC2C[C@H](C(=O)N3CCCCC3)[C@@]3(C)c4[nH]c5ccccc5c4CCN3C2=O)cc1OC (stereo not given in full)
-1	4	-5%[15.4 µM]	11	-31	-1%	OC(COc1cc(Cl)c(Cl)cc1Cl)CN1CCN(c2ncccn2)CC1 (stereo not given)
x	1	-16%	-3.5	-19	19%	COc1cc(CN2CCCC(CCC(=O)NCc3ccc(C)o3)C2)cc2c1OCO2 (stereo not given)
x	0	-18%	6.4	4	1%	Clc1ccc(-c2cc(-c3ccccn3)on2)c(Cl)c1
-2	-1	u	4.4	-1	4%	O=C(NCc1cccs1)C1CCN(S(=O)(=O)c2ccc(Br)s2)CC1
9	1	x	-4.8	-2	x	Nc1ncnc2c1ncn2[C@@H]1O[C@H](C(=O)N[C@@H](CO)Cc2ccccc2)[C@@H](O)[C@H]1O
4	-1	-22%	-1.7	-3	-2%	Cc1c(NC(=O)C2CCCCC2)cc(C(=O)N2CCOCC2)cc1[N+](=O)[O-]
-19	-5	2%	-4.5	1	-1%	CC(/C=C1\N=C(SCc2ccccc2)SC1=O)=C\c1ccccc1
-19	-9	-8%	-1.8	-4	-11%	O=C(Nc1ccc(S(=O)(=O)NC2=NCCCCC2)cc1)c1ccc(Cl)c([N+](=O)[O-])c1
-10	-16	0%	2.0	-17	-5%	CC1C2CC(CC1(C)C)N(C(=O)Nc1ccc3nccnc3c1)C2 (stereo not given)
4	6	7%	0.6	2	6%	Cc1ccc(CNC(=O)CCC(=O)c2cccs2)cc1
-5	-2	28%	0.1	-14	-10%	COc1ccc(C(=O)NCc2ccc3c(c2)OCO3)cc1S(=O)(=O)N(C)Cc1ccccc1

# New compounds follow.
CtBP-E1A blk	Six1-Eya2 blk	gsp agonist	D2 ag	D2 PAM	gsp antag	SMILES
6	4	28%	12	-4	10%	O=C(COC(=O)/C=C/c1cccc(C(F)(F)F)c1)NC1CCCCCC1
0	4	-8%	3.9	2	6%	CC1CCC(NC(=O)CCS(=O)(=O)c2ccc3c(c2)NC(=O)CO3)CC1 (stereo not given)
4	3	28%	-2.7	-3	u	CC(C)n1c2ccccc2c2nnc(SCC(=O)OCN3C(=O)c4ccccc4C3=O)nc21
-1	-6	-55%[inhibitor]	-8.0	-22	-1%	O=C(CN1C(=O)c2ccccc2S1(=O)=O)Nc1ncc([N+](=O)[O-])s1
-12	-13	-1%	-3.4	10	-2%	O=C(Nc1ccc(N2CCCC2)cc1)c1ccc(Br)o1
9	5	2%	-3.3	-8	14%	O=C(Oc1ccc(Cl)cc1)c1ccc2nccnc2c1
-6	0	-14%	-4.4	-16	-3%	CCC1=Nc2cc(C(=O)NCCCN3CCOCC3)ccc2Sc2ccccc21
9	-18	u	-4.4	1	16%	O=C(CSc1ccc(-c2ccco2)nn1)NCc1ccc(F)cc1
0	1	-42%[inhibitor]	3.0	3	5%	COc1ccc2c(c1OC)C(=O)OC2
1	-3	14%	-1.4	-5	7%	CCc1c(C(=O)Nc2ccccc2C(N)=O)csc1C

# 5 compounds out of the list, arranged by molar mass, largest number first:
CtBP-E1A blk	Six1-Eya2 blk	gsp agonist	D2 ag	D2 PAM	gsp antag	SMILES
-6	0	-14%	-4.4	-16	-3%	CCC1=Nc2cc(C(=O)NCCCN3CCOCC3)ccc2Sc2ccccc21
6	4	28%	12	-4	10%	O=C(COC(=O)/C=C/c1cccc(C(F)(F)F)c1)NC1CCCCCC1
-1	-6	-55%[inhibitor]	-8.0	-22	-1%	O=C(CN1C(=O)c2ccccc2S1(=O)=O)Nc1ncc([N+](=O)[O-])s1
-12	-13	-1%	-3.4	10	-2%	O=C(Nc1ccc(N2CCCC2)cc1)c1ccc(Br)o1
1	-3	14%	-1.4	-5	7%	CCc1c(C(=O)Nc2ccccc2C(N)=O)csc1C

# (next part)
CtBP-E1A blk	Six1-Eya2 blk	gsp agonist	D2 ag	D2 PAM	gsp antag	SMILES
-11	0	-2%[15.4 µM]	-0.4	-13	x	O=C(N/N=C\c1ccc(F)cc1)c1ccc(F)cc1
3	4	28%	-0.6	-28	-10%	COc1cc(CNS(=O)(=O)c2ccc3c(c2)CC(C)N3C(=O)C2CCC2)cc(OC)c1OC (stereo not given)
4	8	-15%	-2.6	1	11%	CC(C)(C)OC(=O)N1CCCC1C(=O)NC(Cc1ccccc1)C(=O)O (stereo not given)
-2	3	-5%[15.4 µM]	-5.6	-7	-5%	CCn1cc(/C=N\NC(=O)c2c[nH]c3ccccc23)c(C)n1
x	8	4%	0.0	-18	1%	Cc1ccc(C)c(C(=O)CSc2nnc(C)s2)c1
x	3	18%	-5.1	-2	0%	CC(=O)Nc1nc(C)c(CCC2OCCO2)c(=O)[nH]1
1	7	-2%	2.3	-3	1%	Cc1ccc(CONC(=O)c2ccc(C)cc2)cc1
x	-3	-22%	5.4	5	-3%	O=C(Nc1ccc(N2CCCC2)cc1)c1ccc(Br)cc1
20	13	x	-1.1	-3	-14%	COc1ccc(CN(CCC(C)C)S(=O)(=O)c2ccccc2Br)c(OC)c1
1	-2	9%	-2.5	-10	10%	COC(=O)Nc1c(C)nn(Cc2ccccc2C)c1C
-2	7	x	-5.2	-7	x	COc1ccc([C@@H]2CC(=O)[C@@H]3CN(S(=O)(=O)c4ccc(C)cc4)[C@H](c4ccccc4)C[C@@H]3N2S(=O)(=O)c2ccccc2)cc1
2	8	1%[15.4 µM]	-4.9	-4	-5%	O=C(NCc1ccccc1Cl)C1CCCN(C(=O)Nc2ccc(F)cc2)C1 (stereo not given)
1	5	-9%	-1.7	-14	11%	COc1cc(S(=O)(=O)N2CCN(C)CC2)ccc1Cl
8	4	2%	0.5	8	8%	Cn1c(=O)c(S(=O)(=O)C(C)(C)C)c(O)c2ccccc21
x	-2	-16%	1.8	4	-10%	COc1ccc(N2C(=O)CC(SCc3ccc(Cl)cc3)C2=O)cc1 (stereo not given)
2	10	-5%[15.4 µM]	-4.8	-8	7%	NC(=O)c1nnn(-c2cccc(C(F)(F)F)c2)c1-c1ccccc1
